Rango dissoc inh = inhibition of RanGTP-driven Rango-importin beta dissociation | actives 0.071% (n = 340,000) | Biochemical FRET Rango-importin beta, RanGTP-induced dissociation | Potency, µM (top dose mostly 46.1 µM), inactives show at the top dose activity change, negative = inhibition; active means falling FRET ratio curve, often poorly fitted, with flat reads before Ran was added; inconclusive means other falling curves, or compound fluorescence or quenching; inactive means flat or rising ratio curve;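 further: potency means the concentration at half of the fitted maximal effect; % of control where 0% means no effect; nearly all actives have a fitted effect of over 45% in size; -100% = wells without RanGTP and RCC1; the record marks most hits as doubtful in a second field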
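Two FRET readings bracket the reaction: one 5 min after compound meets Rango–importin beta, another 45 min after RanGTP-RCC1 (0.6 uM Ran, 0.2 uM RCC1, 2 mM GTP) is added. Only the second defines inhibition.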
miR-21 FLuc = miR-21 reporter, rising signal. AID 2288. HeLa miR-21 FLuc reporter, luciferase, 48 h. 340,000 tested, under 10 active. Potency, µM (doses to about 38.3 µM), for inactives: at the highest dose reporter change, positive = more light; active = well fitted rising curve with a large enough effect; inconclusive = small, poorly fitted or top-dose-only effect; inactive = no such curve, though single readings can be large or run the other way;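 further: % of control where 0% means no effect; miR-21 action dims this reporter so a rising signal means less miR-21 action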
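Using DMEM plus 10% FBS, HeLa miR-21-FLuc cells are incubated with test compounds (final up to about 40uM) for 48 hours; firefly luciferase signal is then imaged following reagent-mediated lysis.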
Rango-impB inh = Rango-importin beta binding inhibition; Potency, µM (top dose mostly 92.2 µM), inactives show at the highest dose inhibition of complex formation; actives 0.031% (n = 340,000); Rango CFP/YFP FRET sensor + importin beta, 45 min; AID 540263; active = rising FRET ratio curve, often small or poorly fitted; inconclusive = mostly compound fluorescence or quenching in the first reads; inactive = flat curves in all reads;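 further: potency means the concentration at half of the fitted maximal effect; 0% = DMSO wells and 100% = buffer wells lacking importin beta; nearly all actives have a fitted effect of over 15% in size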
Target sequence (Q14974 whole entry, looked up): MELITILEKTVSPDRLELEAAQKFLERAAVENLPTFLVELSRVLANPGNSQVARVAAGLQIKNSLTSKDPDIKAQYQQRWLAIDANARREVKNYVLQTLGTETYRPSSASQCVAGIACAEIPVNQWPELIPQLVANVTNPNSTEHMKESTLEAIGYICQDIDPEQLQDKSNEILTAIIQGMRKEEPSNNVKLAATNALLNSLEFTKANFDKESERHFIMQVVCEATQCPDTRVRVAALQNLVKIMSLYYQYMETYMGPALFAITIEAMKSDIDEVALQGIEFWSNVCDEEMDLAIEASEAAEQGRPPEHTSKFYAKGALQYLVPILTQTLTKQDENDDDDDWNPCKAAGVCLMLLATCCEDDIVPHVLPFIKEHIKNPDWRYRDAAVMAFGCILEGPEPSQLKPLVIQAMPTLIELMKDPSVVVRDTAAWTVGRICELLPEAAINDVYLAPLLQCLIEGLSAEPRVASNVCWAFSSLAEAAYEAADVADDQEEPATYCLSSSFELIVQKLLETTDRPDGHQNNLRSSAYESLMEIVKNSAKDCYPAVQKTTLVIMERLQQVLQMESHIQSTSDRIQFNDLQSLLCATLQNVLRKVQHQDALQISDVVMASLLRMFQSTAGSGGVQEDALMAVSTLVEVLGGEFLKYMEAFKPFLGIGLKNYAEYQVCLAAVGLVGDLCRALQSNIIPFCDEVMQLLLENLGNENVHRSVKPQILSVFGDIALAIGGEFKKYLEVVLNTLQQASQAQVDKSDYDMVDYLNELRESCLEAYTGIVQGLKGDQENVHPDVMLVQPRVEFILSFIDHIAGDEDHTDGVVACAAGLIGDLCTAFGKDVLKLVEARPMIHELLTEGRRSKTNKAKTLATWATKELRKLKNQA
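FRET biosensor Rango (snurportin 1 IBB between N-terminal EYFP and C-terminal Cerulean), 50 nM in PBS/1 mM DTT/0.02% Tween-20/0.1% BSA, preincubated 5 min RT with compound; 0.125 microM importin beta added, 45 min RT, CFP/YFP FRET ratio read.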
GLA inh pH 4.5 = inhibitors of human alpha-galactosidase A at pH 4.5. P06280. 230,000 tested, under 10 active. purified enzyme, 4-MU-alpha-Gal fluorescence, pH 4.5. AID 1467. activity change, negative = inhibition, % at 105 µM; inconclusive = small, poorly fitted or top-dose-only inhibition, or a rising curve; inactive = flat fitted curve, though single readings scatter; no compound was filed as active;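 further: 0% = full activity with enzyme and -100% = basal without enzyme; dose as in the result columns while the protocol names 77 µM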
* marks the source's active call; other numbers are inactive results; & = joins results of further samples; [ ] = another dose, or the depositor's remark. An excerpt. The share of hits here may be higher or lower than overall.

NC(=O)c1cc(S(=O)(=O)N2CCN(c3cccc(Cl)c3)CC2)cs1 was read as Rango dissoc inh 5%, miR-21 FLuc 2% and Rango-impB inh -1.4%.
Cc1cccc2nnc(-c3ccccc3)n12 was read as Rango dissoc inh -6% and Rango-impB inh -0.2%.
For Cc1c([N+](=O)[O-])cc(C(=O)Nc2ccc(Cc3ccncc3)cc2)cc1[N+](=O)[O-] the results were Rango dissoc inh -2%, miR-21 FLuc 0%, Rango-impB inh 2.7% and GLA inh pH 4.5 -4.
`O=C(CSC(=S)N1CCCC1)c1ccccc1` gave Rango dissoc inh -10%, miR-21 FLuc -13% and Rango-impB inh 0.0%.
CCCN(CCC)S(=O)(=O)c1ccc(C(=O)NCc2ccco2)cc1 was read as Rango dissoc inh -7%, miR-21 FLuc 0% and Rango-impB inh -1.5%.
`CCCn1c(CN2CCN(C(=O)OCC)CC2)nc2cc(NC(=O)C(C)C)ccc21` gave Rango dissoc inh 2%, miR-21 FLuc 23% and Rango-impB inh -1.7%.
Screening COc1ccc2c3c([nH]c2c1)C1CC2C(CC(O)C(OC)C2C(=O)O)CN1CC3 (stereo not drawn) returned Rango dissoc inh inconclusive, miR-21 FLuc -22%, Rango-impB inh inconclusive and GLA inh pH 4.5 -4.
Screening Cc1ccc(Oc2ccc(-c3nc(N)nc(N)n3)cc2)cc1 returned Rango dissoc inh -15%, miR-21 FLuc -26%, Rango-impB inh 0.7% and GLA inh pH 4.5 -3.
O=C(CN1C(=O)CSC1=O)NC1CCCCC1 was read as Rango dissoc inh -9%, miR-21 FLuc -11%, Rango-impB inh -0.7% and GLA inh pH 4.5 -5.
For N#Cc1ccccc1OCC(O)CS(=O)(=O)c1ccccc1 (stereo not drawn) the results were Rango dissoc inh -1%, miR-21 FLuc -7%, Rango-impB inh 0.0% and GLA inh pH 4.5 -6.
`COCCCn1c(C)nc2c(c1=O)c1nc3ccccc3nc1n2CCc1ccccc1` gave Rango dissoc inh -7%, miR-21 FLuc -12%, Rango-impB inh inconclusive and GLA inh pH 4.5 14.
For Cn1cncc1C(=O)c1ccccc1 the results were Rango dissoc inh 17%, miR-21 FLuc 0%, Rango-impB inh 3.2% and GLA inh pH 4.5 -19.
`O=C(CCn1c(=O)c2cccn2c2ccc(F)cc21)NCCc1ccccc1` gave Rango dissoc inh inconclusive, miR-21 FLuc -17%&-1% and Rango-impB inh 1.5%.
For Cc1ccc(S(=O)(=O)Nc2c(NC3CCCCC3)c3ccccc3oc2=O)c(C)c1 the results were Rango dissoc inh 18%, miR-21 FLuc 0% and Rango-impB inh -0.5%.
O=C(N/N=C/c1cc(Br)c(O)c(Br)c1O)c1ccc2c(c1)OCCO2 was read as Rango dissoc inh inconclusive, miR-21 FLuc 7% and Rango-impB inh inconclusive.
COC(=O)c1ccc(C(=O)OC)c(NC(=O)CSc2nc(-c3ccco3)cc(C(F)(F)F)n2)c1 was read as Rango dissoc inh 11% and Rango-impB inh -3.6%.
For N#Cc1ccc(S(=O)(=O)N2CCC(N3CCCCC3)CC2)cc1 the results were Rango dissoc inh inconclusive, miR-21 FLuc -3% and Rango-impB inh 5.4%.
Screening CCOC(=O)c1c(C)c(C(=O)NCc2cccnc2)c(C)n1CC returned Rango dissoc inh -8%, miR-21 FLuc 0%, Rango-impB inh inconclusive and GLA inh pH 4.5 5.
For Cc1ccc2nc(NCCCO)nc(-c3ccccc3)c2c1 the results were Rango dissoc inh inconclusive, miR-21 FLuc 21%, Rango-impB inh inconclusive and GLA inh pH 4.5 0.
COc1ccc(S(=O)(=O)Nc2ccc3c(c2)C(=O)N([C@H](C)CO)C[C@H](C)[C@H](CN(C)Cc2ccc(C(=O)O)cc2)O3)cc1 was read as Rango dissoc inh -10% and Rango-impB inh 0.2%.
CCOC(=O)C1=C(C)Nc2nc(SCC)[nH]c(=O)c2C1c1ccncc1 (stereo not drawn) was read as Rango dissoc inh -10%, miR-21 FLuc -7%, Rango-impB inh 6.9% and GLA inh pH 4.5 1.
`CC1=C(C(=O)OCc2ccccc2)C(c2ccc(C(F)(F)F)cc2)NC(=O)N1CCCCCC(=O)O` (stereo not drawn) gave Rango dissoc inh 23%, miR-21 FLuc -10%, Rango-impB inh -0.5% and GLA inh pH 4.5 -12&-6.
Screening CCC(C)NC(=O)C1CCC(=O)N1Cc1ccc(C)cc1 (stereo not drawn) returned Rango dissoc inh -3%, miR-21 FLuc -2%, Rango-impB inh 3.3% and GLA inh pH 4.5 7.
For Cc1ccsc1-c1nc(CN2CCN(C)C(=O)[C@@H]2C)c(C)o1 the results were Rango dissoc inh -4%, miR-21 FLuc -1%, Rango-impB inh -2.7% and GLA inh pH 4.5 0.
`COc1cccc(Nc2nnc(SCC3CCCCO3)s2)c1` (stereo not drawn) gave Rango dissoc inh 14%, miR-21 FLuc -40%, Rango-impB inh 0.9% and GLA inh pH 4.5 2[21.1 µM].
Screening NC(=O)c1cc(-c2ccccc2)nc(N2CCOCC2)n1 returned Rango dissoc inh -2%, miR-21 FLuc 4%, Rango-impB inh -0.1% and GLA inh pH 4.5 2.
O=c1oc2c(CN3CCOCC3)c(O)c(Cl)cc2c2c1CCCC2 was read as Rango dissoc inh inconclusive, miR-21 FLuc -7%, Rango-impB inh inconclusive and GLA inh pH 4.5 inconclusive.
C=CCN(CC(=O)NC1CC1)S(=O)(=O)c1cccc(C(F)(F)F)c1 was read as Rango dissoc inh 0% and Rango-impB inh -1.3%.
`Cc1ccc(Sc2cc(C(F)(F)F)nc(N(C)C)n2)cc1` gave Rango dissoc inh 1%, miR-21 FLuc 0%, Rango-impB inh 0.7% and GLA inh pH 4.5 7.
Cc1cccc(-c2cc(C(=O)Nc3ccc4c(c3)OCCO4)c3ccccc3n2)c1 was read as Rango dissoc inh 8%, miR-21 FLuc -8%, Rango-impB inh 2.2% and GLA inh pH 4.5 -6.

Gathered by group, the entries above containing a cyano group (2)
For N#Cc1ccccc1OCC(O)CS(=O)(=O)c1ccccc1 (stereo not drawn) the results were Rango dissoc inh -1%, miR-21 FLuc -7%, Rango-impB inh 0.0% and GLA inh pH 4.5 -6.
For N#Cc1ccc(S(=O)(=O)N2CCC(N3CCCCC3)CC2)cc1 the results were Rango dissoc inh inconclusive, miR-21 FLuc -3% and Rango-impB inh 5.4%.

Other compounds:
CCOC(=O)C1=C2c3ccc4ccccc4c3CC(C)(C)N2C(=O)C1=O was read as Rango dissoc inh 0%, miR-21 FLuc -9% and Rango-impB inh -5.0%.
Screening Cc1n[nH]c(=O)nc1Nc1ccc(O)cc1 returned Rango dissoc inh -2%, miR-21 FLuc -2%, Rango-impB inh -3.4% and GLA inh pH 4.5 -8.
For O=C(NC1=NCCS1)C1CCN(S(=O)(=O)c2cc([N+](=O)[O-])ccc2Cl)CC1 the results were Rango dissoc inh -8% and Rango-impB inh 1.3%.
Cc1cc(OCC(=O)Nc2ccccc2N2CCCC2)ccc1C(C)C was read as Rango dissoc inh -15% and Rango-impB inh 3.2%.
`CSc1ccccc1-c1nnc(NC(=O)Cc2ccccc2)o1` gave Rango dissoc inh 24%, miR-21 FLuc -1% and Rango-impB inh -1.8%.
CCOC(=O)CC[C@H](NC(=O)Cn1cnc2c(OCc3ccccc3)ncnc21)C(=O)OCC was read as Rango dissoc inh -1% and Rango-impB inh 3.4%.
For Cc1cc(C)cc(-n2c(C)cc(/C=N/NC(=O)CSc3ncccn3)c2C)c1 the results were Rango dissoc inh -12%, miR-21 FLuc 19%, Rango-impB inh 0.9% and GLA inh pH 4.5 -24.
For N#Cc1nc(Cc2cccc3ccccc23)oc1NCC1CCCO1 (stereo not drawn) the results were Rango dissoc inh 13%, miR-21 FLuc -19%, Rango-impB inh -0.3% and GLA inh pH 4.5 1.
Screening CN1CCN(c2ccccc2NC(=O)c2ccc3c(c2)OCCO3)CC1 returned Rango dissoc inh 3%, miR-21 FLuc -15% and Rango-impB inh -0.9%.
For Cc1c(S(=O)(=O)NC2CCCCC2)c(=O)n(C)c(=O)n1C the results were Rango dissoc inh -11% and Rango-impB inh -1.9%.
For O=C1CCC([N+](=O)[O-])C(c2ccc(-c3ccccc3)cc2)N1 (stereo not drawn) the results were Rango dissoc inh 18% and Rango-impB inh 3.1%.
C/C(=N\NC(=O)c1ccc(Br)cc1)C1C(=O)c2ccccc2C1=O was read as Rango dissoc inh -13%, miR-21 FLuc -11%, Rango-impB inh 6.4% and GLA inh pH 4.5 -6.
For O=C(Cn1ncnn1)OCc1ccccc1Cl the results were Rango dissoc inh 17%, miR-21 FLuc -5%, Rango-impB inh -2.1% and GLA inh pH 4.5 5.
For Cc1cccc(N(C(=O)Cn2nnc3ccccc32)C(C(=O)NC(C)(C)C)c2ccsc2)c1 (stereo not drawn) the results were Rango dissoc inh 5%, miR-21 FLuc -2%, Rango-impB inh -2.7% and GLA inh pH 4.5 -4.
For COCCN(CCOC)c1ncnc2c1cnn2-c1ccccc1 the results were Rango dissoc inh 11%, miR-21 FLuc -48%, Rango-impB inh -5.7% and GLA inh pH 4.5 2.
S=c1[nH]nc(-c2c[nH]c3ccccc23)o1 was read as Rango dissoc inh -10%, miR-21 FLuc -14% and Rango-impB inh 2.1%.
`COc1cc(-c2noc(CCC(N)=O)n2)cc(OC)c1OC` gave miR-21 FLuc 3% and GLA inh pH 4.5 -4.
For Cc1ccc(NCCC(=O)c2ccc(Cl)cc2)cc1C the results were Rango dissoc inh 2%, miR-21 FLuc -3%, Rango-impB inh -7.4% and GLA inh pH 4.5 12.
For CCCC[C@@H]1C=C(C(=O)O)[C@H](c2ccc(C)cc2)N1S(=O)(=O)c1ccc(C)cc1 the results were Rango dissoc inh 33% and Rango-impB inh 1.1%.
`Oc1oc(-c2ccccc2)nc1C=Nc1ccccc1` gave Rango dissoc inh 6%, miR-21 FLuc -48%, Rango-impB inh inconclusive and GLA inh pH 4.5 -7.
For Cc1c(-c2ccc(F)cc2)nc(N)c(C#N)c1-c1cccnc1 the results were Rango dissoc inh 2%, miR-21 FLuc -1%, Rango-impB inh -0.2% and GLA inh pH 4.5 -9.
COc1ccc2nc(C)cc(NCc3cccc(C(F)(F)F)c3)c2c1 was read as Rango dissoc inh 14%, miR-21 FLuc 22% and Rango-impB inh 3.4%.
Screening COc1nc(Cl)cn(-c2ccc(C)cc2)c1=O returned Rango dissoc inh 6%, miR-21 FLuc -6%, Rango-impB inh 3.3% and GLA inh pH 4.5 7.
`CCOC(=O)C1=C(N)OC2=C(C(=O)CC(C)(C)C2)C1c1cccs1` (stereo not drawn) gave Rango dissoc inh 6%, miR-21 FLuc -7%, Rango-impB inh 0.0% and GLA inh pH 4.5 -3.
For CCC(=O)Nc1ccc(NC(=O)c2ccccn2)cn1 the results were Rango dissoc inh -10%, miR-21 FLuc -17%, Rango-impB inh -1.0% and GLA inh pH 4.5 7.
Screening CN(C)CCCNc1cc(Cl)c(S(=O)(=O)N2CCCCC2)cc1C(=O)O returned Rango dissoc inh -10%, miR-21 FLuc 2%, Rango-impB inh -4.1% and GLA inh pH 4.5 1.
For C/C(=N\Nc1nc2c(s1)CCCC2)c1ccc(Cl)cc1 the results were Rango dissoc inh -11%, miR-21 FLuc 20%, Rango-impB inh 2.9% and GLA inh pH 4.5 2.
Screening CCN(CC)CCNC(=O)c1ccc(NC(=O)c2cn(-c3ccc(F)cc3)nc2-c2cccc(OC)c2)cc1 returned Rango dissoc inh -11%, miR-21 FLuc -2% and Rango-impB inh 6.2%.
`CCN(CC)CCCNC(=O)N[C@@H](Cc1ccccc1)C(=O)O` gave Rango dissoc inh 6%, miR-21 FLuc 3%, Rango-impB inh 0.0% and GLA inh pH 4.5 2.
`CN(C(=O)COC(=O)c1cc2ccccc2oc1=O)C1CCCCC1` gave Rango dissoc inh -23% and Rango-impB inh 0.1%.
For CCOC(=O)c1oc2ccccc2c1NC(=O)c1ccc2c(c1)OCO2 the results were Rango dissoc inh 9%, miR-21 FLuc -5%, Rango-impB inh 2.7% and GLA inh pH 4.5 8.
For COc1ccc(CCNC(=O)Cn2cnc3sc(C)c(-c4ccc(F)cc4)c3c2=O)cc1OC the results were Rango dissoc inh -12%, miR-21 FLuc 4%, Rango-impB inh -0.4% and GLA inh pH 4.5 2.

High-throughput results (PubChem)
